# Compound activity as filed in PubChem BioAssay.
# MT1-MMP act inh – blockers of MT1-MMP proenzyme processing, primary screen, HT1080 RFP-PRO-GFP cells, GFP/RFP fluorescence. GFP/RFP ratio fluorescence, overnight; percent of plate control window, DMSO zero. GFP/RFP ratio change, % at 20 µM. 360,000 compounds, 0.061% hits;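 active = GFP/RFP ratio change of at least 30% with cell ATP level not reduced by more than half and red fluorescence within 50% of control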; also: strong numbers were not always called active
#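 Test system: HT1080 cells expressing an RFP-PRO-GFP fluorescent reporter construct / Compound dosing: single-point 20 µM compound, 1% DMSO / Schedule: cells overnight before dosing, compound overnight, 37 °C, 5% CO2 / Evaluation: GFP/RFP fluorescence ratio / Control set: DMSO and RFP-L50D-GFP cell wells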
# PABP polyA inh – PABP poly(A) RNA binding inhibitors, primary screen, biochemical, fluorescence polarization, uHTS; Polyadenylate-binding protein 1 (Homo sapiens), P11940; inhibition, % at 35 µM; 290,000 compounds, 1% hits;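 active = 50% or more with normal probe brightness, or confirmed in later tests; about a fifth of its hits are not listed in these tables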;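 also: calls also rest on retests at 20 µM and on dose response follow-up; controls were probe without protein and protein plus probe with vehicle; some compounds called inactive have numbers as strong as hits; many hits fall short of the cut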
# Target sequence (P11940 whole entry, looked up): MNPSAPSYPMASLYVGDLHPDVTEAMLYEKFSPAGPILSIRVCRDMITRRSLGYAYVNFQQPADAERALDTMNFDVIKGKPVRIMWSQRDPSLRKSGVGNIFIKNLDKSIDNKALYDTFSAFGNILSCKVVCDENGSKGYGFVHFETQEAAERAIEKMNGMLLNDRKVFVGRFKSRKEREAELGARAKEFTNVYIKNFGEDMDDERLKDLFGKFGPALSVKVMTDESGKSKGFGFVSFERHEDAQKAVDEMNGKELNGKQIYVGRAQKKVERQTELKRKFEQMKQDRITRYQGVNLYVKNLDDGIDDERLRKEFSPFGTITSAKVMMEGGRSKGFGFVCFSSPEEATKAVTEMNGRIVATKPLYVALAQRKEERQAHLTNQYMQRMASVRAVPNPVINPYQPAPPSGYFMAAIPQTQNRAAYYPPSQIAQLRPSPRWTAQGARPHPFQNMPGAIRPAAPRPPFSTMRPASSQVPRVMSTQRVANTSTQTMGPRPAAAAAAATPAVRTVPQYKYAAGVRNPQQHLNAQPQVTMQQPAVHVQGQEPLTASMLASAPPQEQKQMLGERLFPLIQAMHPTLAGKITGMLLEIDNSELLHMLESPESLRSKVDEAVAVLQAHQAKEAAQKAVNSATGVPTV
# eIF4H FP inh – human eIF4H binding inhibitors, primary screen, translation initiation inhibitor project, biochemical, uHTS, fluorescence polarization; inhibition, % at 35 µM; 290,000 compounds, 0.94% hits; Eukaryotic translation initiation factor 4H (Homo sapiens), Q15056; AID 2012, 2009; eIF4H fluorescence polarization binding assay;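 active = 50% or more with normal probe brightness, or confirmed in later tests; about a fifth of its hits are not listed in these tables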;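 also: calls also rest on retests at 20 µM and on dose response follow-up; 0% = protein and probe with vehicle and 100% = probe without protein; strong numbers were not always called active; many hits fall short of the cut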
# Rce1 inhib – yeast Rce1p protease inhibitors, primary screen, biochemical, fluorescence, cell-free homogeneous; calls only; 290,000 compounds, 0.27% hits; yeast membranes, quenched prenylated peptide cleavage fluorescence; CAAX prenyl protease 2 (Saccharomyces cerevisiae (strain ATCC 204508 / S288c)), Q03530;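 active = fall in fluorescence gain of 50% or more versus controls, with final raw signal at or below 3038400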;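 also: plate controls were neutral control wells for no effect and wells lacking membranes for full effect; tested at 10 µM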
# Target sequence (Q03530 whole entry, looked up): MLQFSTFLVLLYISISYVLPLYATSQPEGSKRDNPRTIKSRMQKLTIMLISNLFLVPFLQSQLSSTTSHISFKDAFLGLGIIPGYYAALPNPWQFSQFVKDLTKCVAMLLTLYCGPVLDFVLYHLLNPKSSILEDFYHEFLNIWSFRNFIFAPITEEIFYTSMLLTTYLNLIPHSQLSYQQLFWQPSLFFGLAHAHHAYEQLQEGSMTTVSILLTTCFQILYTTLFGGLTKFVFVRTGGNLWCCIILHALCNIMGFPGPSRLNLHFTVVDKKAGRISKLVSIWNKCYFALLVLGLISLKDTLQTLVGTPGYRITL
# UUG fidelity – modulators of yeast start codon fidelity, primary screen, whole organism, S. cerevisiae, single point, plate reader; S. cerevisiae UUG-firefly luciferase reporter, luminescence/redox ratio; activity score, % at 18.7 µM; 350,000 compounds, 0.13% hits; AID 602363, 2012;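 active = replicate mean at a twofold rise or more, about +100% in these data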;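 also: firefly luciferase made from a UUG start codon reports start codon fidelity; reporter light over untreated wells divided by growth signal over untreated wells; some hits fall short of that in this replicate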
# HIV Env fusion – inhibitors of HIV-1 Env-driven cell-cell fusion, primary screen, HeLa-JRFL effector, CEM21 target cells, luciferase; 360,000 compounds, 1.1% hits; inhibition, % at 12.3 µM;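 active = mean replicate inhibition score of at least 50 and every replicate individually at or above 50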;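 also: 0% = plate neutral controls and 100% = maraviroc near 300 nM; one replicate is shown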
# CSC inhib – cancer stem cell viability inhibitors, primary screen, luminescence. cancer stem cell-like cells viability. inhibition, % at 7.5 µM. 300,000 compounds, 1.1% hits. AID 2717, 2010;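 active = mean at 75% or more and at least half the replicates too; tested in HMLE shEcad cells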;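 also: 0% = median of negative and 100% = median of positive control wells; the first replicate is given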
# MT1-MMP act inh RFP – also measured in MT1-MMP act inh; calls as there; RFP signal change, %; measured here: RFP expression control read;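 0 = vehicle wells; hits needed this value within 50% of zero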
# An asterisk follows results filed as active; i = inactive; / = not tested or not shown; & = joins results of further samples.
Structure,MT1-MMP act inh,MT1-MMP act inh RFP,PABP polyA inh,eIF4H FP inh,Rce1 inhib,UUG fidelity,HIV Env fusion,CSC inhib
COCCOc1ccc(C(F)(F)F)cc1NC(=O)Cc1ccc(S(=O)(=O)N2CCOCC2)s1,-5,-6,/,/,i,6,11,/
CC(=O)Nc1ccc(NC(=O)c2cccc3ccccc23)cc1,-2,-1,1,-4,i,-4,-3,0
Cc1cc(Nc2ccccc2)n(-c2cccc(Cl)c2)n1,10,6,-6,-11,i,-22,-17,13
CS(=O)(=O)N(CC(=O)NCCSCc1cccc(Cl)c1)c1ccccc1F,2,0,12,-2,i,-17,-35,-6
Cn1nnnc1SCC(=O)Nc1ccccc1N1CCCCC1,-3,-2,-1,-5,i,-5,/,6
Cc1c(S(=O)(=O)Nc2cccc(Cl)c2)c(=O)n(C)c(=O)n1C,-1,3,-2,-10,i,0,-9,-11
O=C1NC[C@@H](Cc2cccc3ccccc23)N(CCC23CC4CC(CC(C4)C2)C3)C1=O,-3,2,/,/,i,-16,0,-11
COc1ccccc1N=c1c2c([N+](=O)[O-])cc([N+](=O)[O-])cc2n(O)n1-c1ccccc1OC,/,/,-1,-11,/,/,/,0
CSc1nnc2n(-c3ccccc3)c(=O)c3c4c(sc3n12)CCC4,3,-1,8,5,/,-3,/,-21
Cc1cccc(CS(=O)(=O)Cc2ccc(C(=O)NCC3CCCO3)o2)c1 (stereo not given),-1,7,-6,0,i,/,2,-3
CC(C)CNC(=O)c1cccc(NC(=O)Cc2ccc(Cl)cc2)c1,5,-1,-1,-5,i,249*,-30,-4
COCCSc1nnc(NC(=O)C2CCCCC2)s1,1,-2,-7,2,i,-2,-36,3
CCC(C)c1ccc(NC(=O)COC(=O)CCNS(=O)(=O)c2cccs2)cc1 (stereo not given),1,0,/,/,/,10,12,-9
O=C(Nc1cccc(Cl)c1N1CCCC1)c1ccc(Br)o1,-3,-3,-2,-12,i,-11,-8,30
CC(Sc1nnc(COc2ccccc2)n1-c1ccccc1)C(=O)O (stereo not given),1,-1,6,-4,i,-4,14,0
CC(C)NC(=O)CSc1nc(-c2ccccc2)cs1,2,-5,-6,-10,i,/,-17,/
COc1ccc(CC2(CO)CCN(Cc3c(C)nn(C(C)C)c3C)CC2)cc1,4,2,-4,1,i,-14,-8,-7
O=C(CSc1nnc(-c2cccs2)n1CC1CCCO1)c1cc2ccccc2o1 (stereo not given),-41,10,-3,-12,i,-15,/,0
CCCNC(=O)Cn1nc(C(F)(F)F)c2c1CCC2,2,4,-2,3,i,-14,0,-2
CC(O)CN(CCC(N)=O)CCC(N)=O (stereo not given),4,-5,4,12,i,-13,-39,-16
Cc1ccc2oc(=O)c3cc(C(=O)NCc4ccco4)sc3c2c1,0,1,-2,3,i,-21,-12,-2
CCOCC(=O)Nc1ccc2c(c1)N(S(=O)(=O)c1cccs1)CCC2,5,3,/,/,i,-5,6,/
CCC1COCCS(=O)(=O)N1Cc1ccccc1C (stereo not given),0,3,3,3,i,-20,/,11
O=C(NCc1ccco1)c1cnn2c1NC(c1ccccc1)CC2C(F)(F)F (stereo not given),-3,-7,5,3,i,26,14,5
COc1ccc(CCNC(=O)CSc2ccsc2[N+](=O)[O-])cc1OC,1,-4,-2,-2,i,-13,6,-6
CCOc1ccc2nc(NC(=O)Nc3cccs3)sc2c1,2,7,-8,6,i,-18,-291,12
CC(C)(C)S(=O)(=O)/C(C#N)=N/Nc1ccc(C#N)cc1,-6,-14,-6,4,i,/,27,10
COc1ccc(OC)c(NC(=O)C2CCC(CNc3c(N4CCOCC4)c(=O)c3=O)CC2)c1 (stereo not given),0,-1,4,6,i,/,10,-18
CCOc1cc(S(=O)(=O)Nc2ccc(CC)cc2)ccc1Cl,0,-6,0,-1,/,-4,16,123*
O=C(Oc1nsnc1N1CCOCC1)N1CCCC1,2,3,/,/,i,-1,-12,-8
COCCNC(=O)c1cc(C(=O)CC(C)C)c[nH]1,-2,2,-3,-4,i,-20,8,/
Brc1ccc(C2C3=C(Nc4ncnn42)c2ccccc2OC3c2ccncc2)cc1 (stereo not given),-49,-40,-2,-7,i,-12,-73,28
COc1ccc(NC(=O)C2CCCN(C(=O)Nc3ccc(OC)cc3)C2)cc1 (stereo not given),-2,1,5,6,i,-13,0,1
COc1ccc(C(=O)Nn2c(SCC(=O)NCC3CCCO3)nc3ccccc3c2=O)cc1 (stereo not given),3,4,2,-10,/,-75,5,13
Cc1ccc(S(=O)(=O)N(C)C[C@@H]2OCc3cnnn3CCCC(=O)N([C@@H](C)CO)C[C@@H]2C)cc1,5,4,/,/,/,-11&5,18,/
CC[C@@]1(C(=O)OC)N[C@H](CN(C)C(=O)NC(C)C)[C@@H]2C(=O)N(Cc3ccccc3)C(=O)[C@@H]21,4,8,/,/,/,-27,29,/
COc1ccc(NC(=O)N2CCN(S(C)(=O)=O)CC2)cc1OC,4,2,8,-7,i,-4,-108,-6
Cn1nc(-c2ccc(OCC(=O)NCC3CCCO3)cc2)c2ccccc2c1=O (stereo not given),3,-13,-3,-3,i,1,/,-2
COc1ccc(CCC(=O)NNC(=O)Nc2ccc(OC)c(OC)c2)cc1,2,0,-4,4,i,-6,8,-15
CCCNC(=S)N1CC2(C)CN(C(=O)C(=O)OCC)CC(C)(C1)C2=O,-2,5,3,-10,i,/,14,-11
Cc1ccc(S(=O)(=O)NCCC(c2ccccc2)c2ccco2)cc1 (stereo not given),1,-3,6,-2,i,-22,27,13
C=CCOc1cccc(C(=O)NC(c2ccccc2)C(C)C)c1 (stereo not given),-2,-3,-10,-4,i,-7,7,3
COc1cccc(NC(=O)C2CCN(S(=O)(=O)c3ccc(N4CCCC4=O)cc3)CC2)c1,4,-12,/,/,/,-5,10,/
COc1ccc(OCc2cc(C(=O)N(C)Cc3nnc(C)o3)no2)c(Cl)c1,0,3,-9,1,i,-13,-47,-5
COc1ccc(-c2oc3ccc(-c4ccc5c(c4)OCO5)cc3c2-c2ccc(OC)nc2)cc1,2,-3,/,/,i,-24,0,35
Cc1nc(SCC(=O)NCc2ccccc2)c2oc3ccccc3c2n1,7,3,-3,-8,i,-26,-48,/
Cc1ccc(Cn2nnc3c(=O)n(Cc4ccccc4C)cnc32)cc1,11,7,-1,8,i,-11,13,/
O=C(NCc1ccccn1)c1ccc(Cn2cc(Br)cn2)o1,3,3,-4,2,i,-13,-66,-2
CCC1CCCCN1CCCNC(=O)c1ccc(N2CCCC2=O)cc1 (stereo not given),-183,-71,/,/,i,-7,0,4
COc1nc(N)nc(NC(=O)c2cccs2)c1N=O,4,3,/,/,i,-4,-84,53
CC1=NOC2(C1)N(C)c1ccccc1C2(C)C (stereo not given),3,4,1,4,i,1,-27,2
CC1CC(C)CN(C(=O)COC(=O)c2ccc(S(=O)(=O)N(C)c3ccccc3)cc2)C1 (stereo not given),15,1,/,/,/,-17,/,-2
Cc1ccccc1-n1nc2c(c1NC(=O)c1c(-c3ccccc3Cl)noc1C)CSC2,2,1,-4,-7,/,-16,-54,/
Cc1cc(-c2nn(C)c(=O)c3ccccc23)ccc1CNC(=O)NC1CCCCC1,-16,-22,1,-11,i,/,28,-2
O=C(NCc1ccco1)C1CCN(C(=O)c2ccc([N+](=O)[O-])cc2)CC1,1,5,-2,-4,i,-27,-10,-9
CCN(CC)CCN1C(=O)C(O)=C(C(=O)c2cc3cccc(OC)c3o2)C1c1ccc(F)cc1 (stereo not given),3,3,6,-4,i,/,19,-9
CCCNC(=O)C1(C)CCN(Cc2csc3ccccc23)C1 (stereo not given),1,4,/,/,/,-8,12,/
Cc1nn(-c2ccccc2)c(C)c1C(=O)OCC(=O)N1CCN(S(=O)(=O)c2ccccc2)CC1,-2,-2,-7,16,i,-1,-18,-10
COC(=O)CSc1ccc(C#N)c(SCC(=O)OC)c1,4,4,13,9,i,/,/,-19
CCCC(=O)Nc1nnc(Cc2ccccc2)s1,2,-2,-9,-2,/,-8,-63,1

# Random excerpt: five compounds from above, in no set order.
Structure,MT1-MMP act inh,MT1-MMP act inh RFP,PABP polyA inh,eIF4H FP inh,Rce1 inhib,UUG fidelity,HIV Env fusion,CSC inhib
COc1ccc(OCc2cc(C(=O)N(C)Cc3nnc(C)o3)no2)c(Cl)c1,0,3,-9,1,i,-13,-47,-5
CCCNC(=O)C1(C)CCN(Cc2csc3ccccc23)C1 (stereo not given),1,4,/,/,/,-8,12,/
CC1CC(C)CN(C(=O)COC(=O)c2ccc(S(=O)(=O)N(C)c3ccccc3)cc2)C1 (stereo not given),15,1,/,/,/,-17,/,-2
Cc1nc(SCC(=O)NCc2ccccc2)c2oc3ccccc3c2n1,7,3,-3,-8,i,-26,-48,/
COC(=O)CSc1ccc(C#N)c(SCC(=O)OC)c1,4,4,13,9,i,/,/,-19

# The list continues.
Structure,MT1-MMP act inh,MT1-MMP act inh RFP,PABP polyA inh,eIF4H FP inh,Rce1 inhib,UUG fidelity,HIV Env fusion,CSC inhib
O=C(c1ccccc1)c1n[nH]c(-c2ccccc2)cc1=O,1,3,14,-6,/,/,9,-7
CCOC(=O)c1ccccc1NC(=O)Cn1c(=O)n(Cc2ccccc2)c(=O)c2c(C)c(C)sc21,-2,-6,-2,-7,i,/,58*,-2
COc1ccc(NC(=O)CSc2nnc(Cc3cccn3C)n2CCc2ccccc2)c(OC)c1,-1,2,-9,-6,i,-9,/,-1
Cc1ccc(-n2nc(-c3ccco3)cc2C(=O)NCc2cccnc2)cc1,-7,-2,24,47,i,-10,-10,-12
Clc1ccc(CNc2ccccn2)cc1,5,1,-4,-3,i,/,-24,-11
CCC(C)(C)n1nnnc1C(c1ccc(OC)c(OC)c1)N1CCN(c2cccc(OC)c2)CC1 (stereo not given),-5,-1,10,10,i,0,/,/
O=C(CSc1nnc(CNC(=O)c2c(F)cccc2F)o1)NCc1ccccc1,-1,2,5,0,i,-11,-2,-6
Cc1cc(C(C)(C)C)cc(C)c1Cn1c2[n+](c3ccc(C(F)(F)F)cc31)CCCCC2,-24,-32,-4,-13,i,/,25,19
Cc1cc(C)cc(NC(=O)CSc2nnc(CNC(=O)c3ccco3)o2)c1,-1,5,-1,-4,i,-15,7,22
N#Cc1cnc2sc3ccccc3n2c1=N,10,-8,18,4,i,-18,-60,-7
COc1ccc(-n2c(=O)[nH]c3cc(C(=O)NCCc4ccc(OC)c(OC)c4)ccc3c2=O)c(OC)c1,1,2,11,-1,i,-16,5,-3
COc1ccc(C(CNC(=O)c2ccc(S(=O)(=O)N(C)C)cc2)N2CCCC2)cc1 (stereo not given),-2,-5,6,0,i,-5,2,-1
COC(=O)C(N)Cc1ccc(O)cc1 (stereo not given),-2,-1,-1,-6,i,-1,-7,/
COCCn1c(SCC(=O)Nc2cccc(F)c2)nc2c([nH]c3ccccc32)c1=O,-6,-1,6,11,i,-15,-2,3
